CtBP-E1A inh: inhibitors of CtBP/E1A interaction | actives 0.49% (n = 340,000) | AID 651724 | AlphaScreen GST-E1A/His-CtBP binding, 1536-well; hits give low values; control for the full effect not named in the record | activity change, % (test concentration not listed); in the data active means activity change below about -65%; inconclusive means about -30% to -65%; inactive means above about -30%; note: % is set by controls: 0 for no effect and ±100 for the full control effect; compound concentration not given in the record
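Protein mix (5X: 125 nM each GST-E1A, His-CtBP) was incubated with pinned compound 2 h at 37 deg C in dark, in 50 mM Tris pH 8.0 buffer with 300 mM NaCl. Glutathione donor and nickel acceptor beads followed; AlphaScreen signal read after 1 h.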
D2 PAM: human D2 receptor positive allosteric modulation; P14416; DiscoveRx D2 beta-arrestin cells, luminescence, 90 min; 100% = 57 uM dopamine signal; potentiation, % (no concentration beside the values); actives 0.23% (n = 360,000); AID 624464; active = potentiation of 50% or more; inconclusive = 30% to 50%; inactive = 30% or less;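 note: compound concentration not given in the record; tested on top of an EC20 dose of dopamine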
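D2 cells co-treated with compound plus 50 nM dopamine (EC20) for 90 min at 37 deg C to detect potentiation. Beta-arrestin recruitment was read as enzyme-fragment luminescence after 1 h at ambient temperature. Full response was set by 57 uM dopamine.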
D2 ag: activates the human D2 dopamine receptor; activation, % (concentration not given with the values); AID 624465; DiscoveRx PathHunter D2 beta-arrestin, luminescence, 90 min; 100% = 57 uM dopamine signal; actives 0.084% (n = 360,000); P14416; in the data active = activation above about 40%; inconclusive = about 15% to 40%; inactive = below about 15%; note: compound concentration not given in the record; the text of the record calls up to 30% inactive
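Agonist mode: compounds alone added to overnight-plated D2 PathHunter cells for 90 min at 37 C, with 57 uM final dopamine (EC100) defining full response. Beta-arrestin recruitment detected by chemiluminescent reagent, read after 1 h at ambient temperature.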
Six1-Eya2 blk: blocks human Six1 binding to Eya2 | Q15475+O00167 | AlphaScreen GST-Six1/His-Eya2 binding, biochemical; hits give low values; control for the full effect not named in the record | activity change, % (no concentration beside the values) | actives 0.56% (n = 360,000); in the data active = activity change below about -65%; inconclusive = about -30% to -65%; inactive = above about -30%; note: % is set by controls: 0 for no effect and ±100 for the full control effect; compound concentration not given in the record
Target sequence (O00167 whole entry, looked up): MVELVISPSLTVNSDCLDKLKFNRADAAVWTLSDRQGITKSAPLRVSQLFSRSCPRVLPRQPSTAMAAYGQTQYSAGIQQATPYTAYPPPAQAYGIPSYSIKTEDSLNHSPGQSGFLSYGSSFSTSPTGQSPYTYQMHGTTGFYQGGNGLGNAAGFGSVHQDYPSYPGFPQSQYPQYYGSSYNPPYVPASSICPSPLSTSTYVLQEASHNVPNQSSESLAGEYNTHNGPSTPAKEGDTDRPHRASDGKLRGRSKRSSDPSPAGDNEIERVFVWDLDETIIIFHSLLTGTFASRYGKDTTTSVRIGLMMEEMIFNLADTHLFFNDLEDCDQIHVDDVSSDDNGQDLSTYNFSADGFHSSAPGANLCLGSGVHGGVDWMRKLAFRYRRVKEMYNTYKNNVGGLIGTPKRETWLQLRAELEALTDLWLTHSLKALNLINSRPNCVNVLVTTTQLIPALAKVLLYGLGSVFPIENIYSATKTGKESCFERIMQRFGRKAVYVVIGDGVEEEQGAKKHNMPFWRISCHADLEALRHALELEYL
Target sequence (Q15475 whole entry, looked up): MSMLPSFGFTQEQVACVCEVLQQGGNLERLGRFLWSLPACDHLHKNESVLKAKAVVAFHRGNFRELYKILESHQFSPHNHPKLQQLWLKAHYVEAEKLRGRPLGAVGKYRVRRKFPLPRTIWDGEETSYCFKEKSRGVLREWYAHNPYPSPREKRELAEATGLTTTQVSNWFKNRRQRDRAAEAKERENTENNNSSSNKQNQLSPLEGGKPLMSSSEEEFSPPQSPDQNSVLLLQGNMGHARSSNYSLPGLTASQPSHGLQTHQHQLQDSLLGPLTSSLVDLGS
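Compounds are tested against tagged Six1 and Eya2 proteins bridged by glutathione donor and nickel acceptor beads; after a one-hour incubation at 37 °C without light, AlphaScreen emission is recorded.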
TRPML1 ag: activates the human TRPML1 channel; Q9GZU1; TRPML1-expressing cells, Ca2+ dye fluorescence, FDSS; host cell line not named in the record; reference of the full effect not given here; activation, % (test concentration not listed); actives 0.12% (n = 410,000); AID 624414; in the data active = activation above about 50%; inconclusive = about 30% to 50%; inactive = below about 30%; note: 0% is about no effect; the text of the record puts the active cut at 80%
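In this qHTS format, compounds were pin-transferred onto Ca8-dye-loaded TRPML1-DL cells induced with Tet overnight, and intracellular Ca2+ fluorescence was recorded kinetically for 110 s after a 10 s baseline. A subsequent 4uM final 54-4 (EC80) addition followed by a second 110 s read served as the antagonist phase.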
PINK1 modulator: PINK1 expression modulation; PINK1 immunofluorescence, high-content cytometry, 24 h; Potency, µM (highest dose often 76.6 µM), without a hit: at the top dose activation (PINK1 increase), most hits filed as activators; actives 0.2% (n = 410,000); AID 624263; active = well fitted activation curve with a large enough effect; inconclusive = small, poorly fitted or top-dose-only effect; inactive = flat fitted curve, though single readings scatter; cell line not stated here;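 note: potency is the fitted concentration of half-maximal effect; % of control where 0% means no effect; nearly all actives have a fitted effect of over 65% in size; a mitochondrial uncoupler was the plate control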
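Stable cell line, 250 cells/well, 12 h attachment; compounds pinned at 5 concentrations, 24 h; CCCP control. Fixed with nuclear dye, primary antibodies 12 h at 10 degrees C, secondary plus cell stain; laser-scanning cytometer read.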
The depositor's hits bear a star; ? = inconclusive; · = no result given; [ ] = remark or other dose.

item	Structure	CtBP-E1A inh	D2 PAM	D2 ag	Six1-Eya2 blk	TRPML1 ag	PINK1 modulator
1	Cc1cc(C)c2nc3sc(=Cc4ccc(-c5ccccc5C(=O)O)o4)c(=O)n3c2c1	-5	-4	-6.8	-29	7.8	2.8%
2	COc1ccc(-c2csc3ncnc(N4CCN(S(=O)(=O)c5ccc(C)cc5)CC4)c23)cc1	1	-3	-1.1	-11	-0.3	0.6%
3	CCCCC1=CC2=CC(=O)C(C)(OC(=O)CC)C(=O)C2=CN1CCc1c[nH]c2ccccc12 (stereo not given)	-9	7	6.5	-12	-0.3	1.2%
4	Cc1cccc(-n2c(=O)[nH]c3c(C(N)=O)nc(C(C)C)nc32)c1	-1	-3	-3.7	-4	-0.7	0.3%[38.3 µM]
5	Cn1ccnc1SCCNC(=O)C1CCC(=O)N(Cc2ccc(Cl)cc2)C1 (stereo not given)	-1	-8	-1.7	5	0.4	-1.1%
6	COc1ccc(/C=N/NC(=O)c2cccc(NC(=O)c3ccc(Cl)cc3)c2)c(OC)c1	-19	-18	3.5	1	2.1	4.4%
7	CC(=O)c1ccc2c(c1)Cc1cc(C(C)=O)ccc1-2	18	4	-1.2	6	0.0	-0.8%
8	CCNc1nc(NC(C)C)nc(SCCOC(=O)c2ccccc2)n1	6	-3	1.6	-2	-0.5	0.6%
9	O=C(NCC(c1ccco1)N1CCCC1)c1sc2cc(F)ccc2c1Cl (stereo not given)	4	-19	1.6	-7	1.4	4.6%
10	COc1cc(C(N)=O)cc(Br)c1OCc1ccccc1	6	5	-1.5	-7	0.4	6.4%
11	COc1cccc(C2C(C(=O)Nc3nc4ccccc4s3)=C(C)NC3=C2C(=O)CC(C)(C)C3)c1OC (stereo not given)	-2	-22	-2.0	16	0.7	4.5%
12	CC(C)CCNc1nc(N)c([N+](=O)[O-])c(NC2CCCCC2)n1	·	-10	-4.9	18	1.7	5.6%
13	O=C(O)c1ccccc1/C=N/NC(=O)c1cc(-c2ccco2)nc2ccccc12	-28	-1	-1.8	?	1.3	-0.2%
14	COc1ccc(/C=N\NC(=O)c2sccc2C)cc1Cn1nc(C)cc1C	-8	-7	3.6	-2	1.6	3.3%
15	CC1(Cc2ccc3c(c2)OCO3)NC(=O)NC1=O (stereo not given)	3	-10	-0.6	4	1.6	-0.1%
16	C[C@]12CCC(=O)C=C1C=C[C@@H]1[C@@H]2CC[C@@]2(C)[C@H]1CC[C@@]21CCC(=O)O1	-2	-6	-9.9	2	0.8	-1.7%
17	O=[N+]([O-])c1cccc(-c2nnc(C34CC5CC(CC(C5)C3)C4)o2)c1	1	-6	-3.4	-21	-0.2	7.9%
18	O=C(NC(=S)Nc1ccc(F)c([N+](=O)[O-])c1)c1ccccc1F	3	0	-2.6	-8	-0.5	8.9%
19	Cc1cc(C(=O)N(C)CC(=O)Nc2ccccc2C(F)(F)F)c(C)o1	4	-24	-3.8	0	-0.7	10%[38.3 µM]
20	O=C(O)c1ccc(-c2ccc(/C=C3\NC(=O)N(Cc4ccc(Cl)cc4)C3=O)o2)cc1Cl	3	-3	1.8	?	2.1	-0.7%
21	Cc1c(Cl)ccc2c(C(O)CBr)cc(-c3ccccc3)nc12 (stereo not given)	-2	0	6.6	-14	4.2	0.9%
22	CCCN1CNc2c(c(=O)[nH]c(=S)n2-c2ccc(Cl)cc2)C1	0	-3	-0.6	-3	-0.5	2.0%
23	COc1cc(/C=C(/C(=O)c2cccs2)c2nc3ccccc3[nH]2)cc(OC)c1O	-1	-13	-3.8	-1	-0.9	-4.8%
24	COc1ccc(C(C#N)(CC(=O)O)c2cnccn2)cc1OC (stereo not given)	5	-10	-2.7	11	-0.4	-0.2%
25	Cc1cccc(Cl)c1NC(=S)N1CCN(c2ccc([N+](=O)[O-])cn2)CC1	0	3	-0.2	15	0.4	1.3%
26	O=C(NCc1ccco1)C(Cc1ccccc1)NS(=O)(=O)c1cccc2nsnc12 (stereo not given)	-8	-21	-1.4	-4	1.8	-2.0%
27	Cc1ccccc1NC(=O)NC1(C(=O)NCCCN2CCOCC2)CCCCC1	-3	0	-1.1	-1	2.7	-0.9%
28	C=CCn1c(CNC(=O)c2cccs2)nnc1SCC(=O)Nc1ccc(C(=O)O)cc1	1	-9	1.1	-3	-1.2	1.0%
29	Cn1c(=O)[nH]c(=O)c2c1nc(CN(Cc1ccccc1)Cc1ccccc1)n2CCN1CCOCC1	-12	-7	0.6	-2	-0.2	-1.7%[38.3 µM]
30	Cn1c(N)c(C(=O)COC(=O)Cc2ccc(Cl)cc2)c(=O)n(C)c1=O	5	-7	-4.1	-5	-0.5	-0.4%
31	Cc1ccc(OCC(=O)O/N=C(\N)c2cccc([N+](=O)[O-])c2)cc1C	-12	-4	-4.4	0	2.5	-0.4%
32	CC(=O)OCc1ccccc1Sc1ccccc1C(=O)NCc1ccccc1	7	-8	-4.0	0	2.1	0.6%
33	CCN1C(=O)C(CC(=O)Nc2ccc(OC)cc2)N(Cc2ccc(OC)c(OC)c2)C1=S (stereo not given)	0	6	1.0	8	0.1	-0.6%
34	Cc1ccc(S(=O)(=O)N2CCN(C(=O)c3ccc([N+](=O)[O-])cc3)C2)cc1	·	4	-2.0	0	1.1	2.2%
35	CN(CC(=O)Nc1ccccc1Cl)C(=O)c1cc(-c2cccs2)nn1-c1ccccc1	-6	8	-0.5	-1	3.3	-4.9%
36	COc1ccc(C(C)=O)cc1CC1(C)C(=O)Nc2ccc(-c3cccc(C(F)(F)F)c3)cc21 (stereo not given)	-16	-7	2.2	2	0.5	0.2%
37	Cc1ccsc1C(=O)N1CC=C(c2ccccc2)CC1	1	-32	-4.8	0	2.8	-1.3%
38	COc1cc(/C=C/CNC[C@H]2O[C@@H](n3cnc(C(N)=O)n3)[C@H](O)[C@@H]2O)ccc1O	5	·	-1.9	5	-0.5	-0.7%
39	CCOc1ccc(CCNC(=O)COC(=O)c2ccncc2)cc1OCC	-14	-2	3.9	-3	1.1	-1.6%
40	CC(=O)c1ccc(N(CC(=O)NC2CCCCC2)C(=O)CNC(=O)c2cccs2)cc1	0	-12	-2.6	-5	1.2	-0.6%
41	CCN(CC)c1ccc(C2NCC(c3ccc([N+](=O)[O-])cc3)O2)cc1 (stereo not given)	-2	28	-1.9	4	0.2	·
42	Cc1ccccc1NC(=O)NC1CCS(=O)(=O)C1 (stereo not given)	8	4	-0.8	4	0.3	1.8%
43	Cc1cc(C)n2nc(C(=O)OCC(=O)c3ccccc3Cl)nc2n1	0	-5	-2.1	-3	-0.2	-0.8%
44	CCCCNC(=O)c1ccccc1SCC(=O)NC1CCCCCCC1	-9	-4	-2.7	3	2.1	2.1%
45	CC1CCN(c2ccc([N+](=O)[O-])cn2)CC1	0	-6	-3.7	0	-0.4	-1.6%
46	NC(=O)CN1C(=O)/C(=c2\sc3nc(=O)c(Cc4ccccc4)nn3c2=O)c2ccccc21	-27	-13	-2.7	-26	-0.2	-0.1%
47	CSc1nnc(NC(=O)c2cc3ccccc3oc2=O)s1	4	-7	-6.2	-2	-0.8	0.6%
48	C(#Cc1ccc(C#CCN2CCOCC2)cc1)CN1CCOCC1	-4	2	-2.0	2	-0.4	?
49	O=C1CSC(c2cn(-c3ccccc3)nc2-c2cc3ccccc3oc2=O)N1Cc1ccccc1 (stereo not given)	0	-2	-4.3	19	0.9	2.1%
50	COc1ccc(/C=C/C(=O)OCC(=O)NCc2ccco2)cc1OC	2	-5	-3.9	-21	-0.3	10%

Fetched by compound from the list above:
item	Structure	CtBP-E1A inh	D2 PAM	D2 ag	Six1-Eya2 blk	TRPML1 ag	PINK1 modulator
48	C(#Cc1ccc(C#CCN2CCOCC2)cc1)CN1CCOCC1	-4	2	-2.0	2	-0.4	?
35	CN(CC(=O)Nc1ccccc1Cl)C(=O)c1cc(-c2cccs2)nn1-c1ccccc1	-6	8	-0.5	-1	3.3	-4.9%
47	CSc1nnc(NC(=O)c2cc3ccccc3oc2=O)s1	4	-7	-6.2	-2	-0.8	0.6%
40	CC(=O)c1ccc(N(CC(=O)NC2CCCCC2)C(=O)CNC(=O)c2cccs2)cc1	0	-12	-2.6	-5	1.2	-0.6%

Going on with the list.
item	Structure	CtBP-E1A inh	D2 PAM	D2 ag	Six1-Eya2 blk	TRPML1 ag	PINK1 modulator
51	CC(C)N(C)c1ncnc2c1ncn2[C@H]1CN(CCN2CCOCC2)C[C@@H](CO)O1	2	-2	-1.6	3	-0.6	0.0%
52	CC(C)CC(=O)Nc1sc2c(c1C(=O)O)CCCCC2	·	-2	-4.9	0	1.3	2.1%
53	CCCn1cc(SCC(=O)Nc2nnc(C)s2)c2ccccc21	2	-2	-1.8	-2	1.0	8.3%
54	CCSc1nnc(NC(=O)C2Cc3ccccc3CN2C(=O)c2ccco2)s1 (stereo not given)	-7	4	3.5	-8	-0.3	1.8%
55	CCCCCN(C(=O)CCC(=O)OCC(=O)NCCc1ccccc1)c1c(N)n(CCCC)c(=O)[nH]c1=O	1	-6	-1.5	12	-0.2	-0.9%
56	Cc1ccc([N+](=O)[O-])c(OCCCN2C(=O)NC(C)(C)C2=O)c1	2	-2	-1.5	19	0.9	-0.1%
57	COc1ccc(C(O)C(CC(=O)NCCCOC(C)C)C(=O)NCCCOC(C)C)cc1OC (stereo not given)	3	-16	1.4	11	-0.1	-1.8%
58	Cc1ccc2nc(-c3ccc(F)cc3)nc(SCC(=O)NCC3CCCO3)c2c1 (stereo not given)	13	-2	-2.4	-3	0.9	2.5%
59	O=C(O)c1ccc(NC(=S)N2CCCCC2)cc1	1	3	-3.6	-5	0.8	0.6%
60	CS(=O)(=O)N1CCCCC1c1cc(C(=O)Nc2cccc(C#N)c2)no1 (stereo not given)	-5	-9	-5.5	-5	-0.4	0.2%
61	O=c1[nH]c(Cn2nnc(-c3ccccc3)n2)nc2scc(-c3ccccc3)c12	-7	-12	0.7	1	1.4	5.2%
62	N#CCCn1c(O)c(N=NC(=O)CNC(=O)c2cccs2)c2ccccc21	2	-1	-2.4	-6	0.0	1.0%
63	Cc1nc2ncnn2c(C)c1Cc1ccc(Cl)cc1	4	19	-0.2	2	0.1	-0.2%
64	O=[N+]([O-])c1ccccc1/C=C/C=N/n1c(-c2ccco2)n[nH]c1=S	-5	-12	2.5	-4	1.6	19%
65	Cc1ccc2c(c1)C1CC(C)(O2)N(c2cccc(C(=O)N3CCN(c4ccccn4)CC3)c2)C(=O)N1 (stereo not given)	0	12	-1.8	-1	-1.2	1.6%
66	COc1ccc(Cc2ccc(OC)c(N)c2)cc1N	-7	0	-3.5	-9	-0.6	1.2%[38.3 µM]
67	CN(C)c1ccc(CNc2ncn[nH]2)cc1	-1	5	4.2	4	1.1	-1.2%
68	Cc1ccccc1Nc1ncc(C#N)c(N)n1	8	-1	-4.0	6	1.9	0.3%
69	CCCCN(CCCC)Cc1cc(=O)oc2ccc3ccccc3c12	14	-5	-1.0	13	-0.5	9.4%
70	CC(=O)c1cccc(Nc2ncnc3ccc(Br)cc23)c1	-3	2	4.2	-5	-0.5	-2.6%
71	CCCCN(C(=O)CSc1nnc(-c2ccc(OC)cc2)n1CC)c1c(N)n(Cc2ccccc2)c(=O)[nH]c1=O	-11	-10	-3.9	5	3.0	2.2%
